From PubChem BioAssay
Biofilm kill mix = mixtures killing C. albicans biofilm; C. albicans biofilm persisters + clotrimazole, fluorescence viability; primary screen in compound mixtures of four per well; inhibition, % at 7.6 µM; hit rate 0.02% among 120,000; AID 1242;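 active = inhibition above 30.3% in the primary screen of four-compound pools, then above 30% when the compound was retested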;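 also: compounds exposed to preformed 24 h biofilms for 48 h; the number belongs to the whole pool; some results filed as inactive read as strong as hits; inactives centre near 12; 0% = biofilm with clotrimazole alone and 100% = kill control; retested singly at about 60 µM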
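Test system: C. albicans CAF4-2 wild-type biofilms; buffer or medium: RPMI/MOPS medium, pH 7.0; schedule: 24 h biofilm formation, then 48 h compound exposure, 37 °C; detection: Alamar Blue fluorescence; measure: percent inhibition of biofilm viability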
* hit, by the source's call; & = joins results of further samples. Not all compounds are listed; rates above refer to the full screens.

Structure	Biofilm kill mix
O=C(/C=C/c1ccc(Cl)cc1)N(Cc1ccccc1)C1CCS(=O)(=O)C1 (configuration not stated)	18
COCC[N+]1(C)CCCCC1	13
Cc1ccccc1CN(C)C(C)C(=O)Nc1ccccc1F (configuration not stated)	15
O=C(NCCCN1CCOCC1)c1ccccc1NS(=O)(=O)c1cc([N+](=O)[O-])ccc1Cl	14
O=c1[nH]c(=S)n(C2CCCCC2)c(O)c1C=NCCN1CCOCC1	16
CNC(=O)COC(=O)c1c2c(nc3ccccc13)CCC2	15
N=C(N)N1CCN(Cc2ccccc2)CC1	9
Cc1oncc1-c1csc(-c2ccccc2Cl)n1	11
C/C(=N\NC(=O)CN(c1ccccc1Br)S(C)(=O)=O)c1ccc2c(c1)OCCO2	10
COC(=O)N/N=C/c1cn(CC(C)COc2ccccc2)c2ccccc12 (configuration not stated)	13
CC(CC(=O)N1CCN(c2ccc(C(F)(F)F)cn2)CC1)n1ccnc1 (configuration not stated)	11
CC(C)CNS(=O)(=O)c1ccc(CCC(=O)N2CCCC2)cc1	5
O=C1C(=O)N(c2ccc(O)cc2)C(c2ccccc2[N+](=O)[O-])/C1=C(\O)c1ccccc1 (configuration not stated)	21
O=C(NC(=S)Nc1ccccc1C(F)(F)F)c1ccccc1F	3
CNS(=O)(=O)c1cc2c3c(cccc3c1)C(=O)NC2=O	8
Cn1c(SCC(=O)Nc2ccc3[nH]c(=O)[nH]c3c2)nnc1-c1ccc(F)cc1	19
CCC(C)NC(=O)C1CCN(c2nc(OC)nc(OC)n2)CC1 (configuration not stated)	8
O=c1cc(O)c(-c2cccc(C(F)(F)F)c2)c(Cl)[nH]1	19
CCOc1ccc(N2C(=O)C(CC(=O)Nc3ccc(F)cc3)N(Cc3ccccn3)C2=S)cc1 (configuration not stated)	11
CCOc1ccc(C(=O)NC(=S)NCc2cccnc2)cc1	13
CSc1ccc(CCNC(=O)c2cc(C)nn2-c2ccccc2)cc1	20
COC(=O)c1ccc(N)nc1	4
C/C(=N\NC(=O)OC(C)(C)C)c1ccc(-n2ccnc2)cc1	8
O=C(CC1(c2ccc(Cl)cc2)C2CC3CC(C2)CC1C3)NCCO (configuration not stated)	14
Cc1ccc(C(=O)N/C(=C\c2ccc(-c3cccc([N+](=O)[O-])c3)o2)C(=O)NC(C)(C)C)cc1	0
Cn1c(CN2CCN(c3cccc(Cl)c3)CC2)nc2ccccc21	15
COc1ccc(-c2nc3ccccc3c(=O)n2CCOc2cccc(C)c2C)cc1	14
Cc1ccc(N2C(S)=C(C#N)C(=O)NC2c2ccco2)cc1 (configuration not stated)	6
CC1CCN(c2nc3ccccc3n2CC(=O)c2ccccc2)CC1	9
CC(C)CC(=O)Nc1ccc2ccccc2c1	25&11
COc1ccc(C(=O)Nc2ccc(N3CCN(C(=O)c4ccccc4)CC3)cc2)cc1[N+](=O)[O-]	15
CC1=CC(C)(C)NC(=S)N1NC(=O)c1ccccc1Cl	30

Arranged by molar mass (largest number first): 3 of the compounds above
Structure	Biofilm kill mix
C/C(=N\NC(=O)CN(c1ccccc1Br)S(C)(=O)=O)c1ccc2c(c1)OCCO2	10
O=C1C(=O)N(c2ccc(O)cc2)C(c2ccccc2[N+](=O)[O-])/C1=C(\O)c1ccccc1 (configuration not stated)	21
CC(CC(=O)N1CCN(c2ccc(C(F)(F)F)cn2)CC1)n1ccnc1 (configuration not stated)	11

Continued:
Structure	Biofilm kill mix
Cc1c(C(=O)NCCSCc2cccc(C(F)(F)F)c2)cnn1-c1ccc(Cl)cc1	16
CC1CCCCC1NCc1cccc([N+](=O)[O-])c1 (configuration not stated)	12
O=C(Nc1cccc(C(=O)O)c1)/C(=C\c1ccccc1)NC(=O)c1ccccc1	19
Cc1ccc(C)c(NC(=O)c2oc(=O)c3ccccc3c2-c2ccccc2)c1	3
O=S(=O)(c1ccc(Cl)cc1)c1nc(-c2ccco2)oc1N1CCOCC1	1
COCCNC(=O)C(=O)NNC(=O)CCc1ccccc1	28
COc1ccc2oc(C(=O)Nc3nc4ccccc4[nH]3)c(C)c2c1	20
CN(C)/C=N/c1ncc(C(=O)c2ccc(Cl)cc2Cl)s1	16
CS(=O)(=NS(=O)(=O)c1ccc(Cl)cc1)c1ccccc1 (configuration not stated)	15
Cc1nn(C)c(C(=O)N/N=C/c2ccc(C(F)(F)F)cc2)c1[N+](=O)[O-]	14
COC(=O)c1ccccc1N(C)S(=O)(=O)c1cc2c(cc1C)OCC(=O)N2	47
COc1ccc(N2C(=O)CSC2c2ccccc2[N+](=O)[O-])cc1 (configuration not stated)	-7
O=C1CSC(=Nc2ccccc2)N1Cc1ccccc1	17
COc1ccccc1CNCC(=O)Nc1ccc(N2CCOCC2)cc1	16
O=C(COC(=O)C1CC(O)CN1S(=O)(=O)c1ccc(Cl)cc1)c1cccc(Cl)c1 (configuration not stated)	8
COC(=O)c1ccccc1S(=O)(=O)N1CCn2cccc2C1C (configuration not stated)	16
COCCn1nnnc1SCC(=O)NCc1ccc2c(c1)OCO2	-8
CCOC(=O)c1ccc2nc(NC(C)=O)sc2c1	1
O=C(Nc1ccc(Cl)cn1)Nc1ccc(Cl)cn1	8
Cc1ccc(-c2csc(N/N=C/c3ccco3)n2)c(C)c1	14
O=C1c2cccc(OCC(=O)N3CCCc4ccccc43)c2CCN1Cc1ccc(F)cc1	15
N/C(=N\OC(=O)Cc1cccs1)c1ccc([N+](=O)[O-])cc1	7
COc1cccc2sc(NNC(=O)C3=COCCO3)nc12	4
N#Cc1c(NC(=S)NC(=O)C2CCCC2)sc2c1CCCCC2	15
C/C(=N\N=C(c1ccccc1)c1ccccc1)c1ccco1	-4
O=C(CO/N=C1\CCCc2nonc21)Nc1ccc(Br)cc1	22
CSc1ccccc1NC(=O)CO/N=C(\C)c1cc2ccccc2o1	7
N/C(=N/O)c1cccn1Cc1ccccc1[N+](=O)[O-]	12
Cc1ccc(NC(=O)CCCN2C(=O)/C(=C/C=C/c3ccccc3)SC2=S)cc1	12
COc1ccc(CC(=O)Nc2ccc(OC(C)=O)cc2C(=O)O)cc1	6
COc1ccc(CCN(C)Cc2nc(-c3cnccn3)no2)cc1OC	4
O=S(=O)(c1ccc(Cl)cc1)N1CCN=C1SCc1ccc(Cl)c(Cl)c1	25
Oc1[nH]c2ccccc2c1N=NC(=S)NCCc1ccccc1	19
Cc1nc(N)c(Br)c(C)c1Br	13
COc1ccc(N2CCN(C(=O)CCSCc3ccccc3F)CC2)cc1	1
CCCn1c(N2CCN(C)CC2)nc2c1c(=O)[nH]c(=O)n2C	5
O=C(Nc1ccccc1F)c1cc2nc(C(F)F)cc(C(F)F)n2n1	13
CN(N=Nc1ccc([N+](=O)[O-])cc1)c1ccccc1	10
N/C(CN1CCSCC1)=N\OCc1c(F)cccc1Cl	12
O=C(COC(=O)c1cccs1)Nc1cccc(S(=O)(=O)NC2=NCCCCC2)c1	-2

Brought forward from above: four entries, then new ones.
Structure	Biofilm kill mix
O=C(Nc1ccccc1F)c1cc2nc(C(F)F)cc(C(F)F)n2n1	13
CN(N=Nc1ccc([N+](=O)[O-])cc1)c1ccccc1	10
N/C(CN1CCSCC1)=N\OCc1c(F)cccc1Cl	12
O=C(COC(=O)c1cccs1)Nc1cccc(S(=O)(=O)NC2=NCCCCC2)c1	-2
O=C(c1ccccc1-c1ccccc1)N1CCCCC1	32
Oc1ccc(C=NC2CCCCC2)c(O)c1	28
CN(C)c1ccc(/C=C(\Cl)c2nc3ccccc3s2)cc1	19
Cc1cc2nc(CCN3CCOCC3)n(S(=O)(=O)c3ccc(C(C)(C)C)cc3)c2cc1C	6
CCOC(=O)C1(CCc2ccccc2)CCN(C(=O)c2cc(C)nc(C)n2)CC1	0
COc1ccc(NC(=O)CCN2C(=O)C3CC=C(Cl)CC3C2=O)cc1 (configuration not stated)	6
Cc1cc(Cl)ccc1C(=O)C1CCCN(C(=O)c2cc(C(C)C)no2)C1 (configuration not stated)	17
CCCCC1=CC2=CC(=O)C(C)(OC(=O)CC)C(=O)C2=CN1Cc1ccco1 (configuration not stated)	16
O=C(O)/C=C/c1cn(Cc2ccccc2Cl)nc1-c1ccccc1	20
CCOC(=O)c1c(NC(=O)c2cc(-c3ccc(O)cc3)on2)sc(C(C)=O)c1C	1
COc1ccc(/C=N/Nc2ncnc3sc4c(c23)CCCC4)cc1O	-7
NC(=O)[C@H]1CC2(CC(c3cccc(NC(=O)[C@H]4CCC(=O)N4)c3)=NO2)CN1C(=O)CC(c1ccccc1)c1ccccc1 (some centres not stated)	18
CN1CCN(C(=O)C2=C[C@@H](c3ccccc3)C[C@@H](OCCCCO)O2)CC1	19
O=C1NC(=Nc2ccccc2)S/C1=C/c1cccs1	5
CC(C)(Oc1ccc(Cl)cc1)C(=O)N1CCC(C(N)=O)CC1	13
CCOc1ccc2nc(NCCCO)[nH]c2c1	6
Cc1ccc2c(c1)nnn2C1CCN(CC(=O)N(c2ccccc2)c2ccccc2)CC1	21
Cc1ccc2cc(C)c(SCC(=O)NCc3ccco3)nc2c1	-4
CCn1c(C)nc2cc(C(=O)NNC(=O)Nc3ccc(Cl)cc3)ccc21	18
Cc1cc(-c2ccccc2)oc(=O)c1NC(=O)c1ccccc1	0
Cc1[nH]nc2c1C(C(C)c1ccccc1)C(C#N)=C(N)O2 (configuration not stated)	20
CN=c1scc(-c2cccs2)n1/N=C/c1ccccc1O	-9
C=CCNC(=O)C1CCN(c2cc(C)nc(-c3ccccc3)n2)CC1	2
O=C(c1cnc2n(c1=O)CCS2)N1CCN(c2ccccc2Cl)CC1	18
O=C(Nc1ccccc1)Nc1cc(OCC(F)(F)F)cc(OCC(F)(F)F)c1	12
CCOc1ccc(S(=O)(=O)N/N=C(\C)Cc2ccc(OC)cc2)cc1	10
O=C(Nc1ccccn1)c1sc2cccc(F)c2c1Cl	0
NNc1nc2c(F)cccc2s1	-5
Cc1ccc(OCc2nnc(NC(=O)c3cccnc3)s2)cc1	20
Cc1c(C(=O)N(Cc2ccccc2)C(C)C)cnn1-c1ccccc1	4
NC(N)=NS(=O)(=O)c1ccc(N=C2C(=O)Nc3ccccc32)cc1	13
O=C(CC1C(=O)NCCN1Cc1cccc(Oc2ccccc2)c1)NCCc1ccccn1 (configuration not stated)	14
Clc1ccc2c(c1)C(N1CCNCC1)Cc1ccccc1S2 (configuration not stated)	10
COc1ccc(OC)c(C(=O)N2CCC(C(=O)c3ccc(F)cc3)CC2)c1	14
Cc1cc(=O)oc(C)c1C(=O)OC(C(=O)c1ccccc1)c1ccccc1 (configuration not stated)	15
CC(C)OCCCNC(=O)c1cc(Sc2ccc(F)cc2)nc2ccccc12	13
Cc1cc(C)nc(N2CCC(C(=O)Nc3ccc4c(c3)OCCO4)CC2)n1	11
CCOC(=O)C1CCCN(C(=S)Nc2ccc(Nc3ccccc3)cc2)C1 (configuration not stated)	11
O=c1oc2ccccc2c(Nc2ccc(Cl)cc2)c1[N+](=O)[O-]	19
CC(C(=O)OCC(=O)c1c(N)n(C)c(=O)n(C)c1=O)N1C(=O)c2ccccc2C1=O (configuration not stated)	2
CC(C)(C)[C@@H]1C=C(C(=O)N2CCOCC2)O[C@H](OCc2ccc(CO)cc2)C1	13
COCC(C)n1c(SCc2cc(=O)n3cc(C)ccc3n2)nc2ccccc2c1=O (configuration not stated)	9
CCOC(=O)c1nn(-c2cccc(Cl)c2)c2nc(CC(C)C)c(C#N)c(=O)n12	19
Cc1occc(=O)c1OCc1ccccc1	6
CCSC(=S)Nc1c(C)n(C)n(-c2ccccc2)c1=O	-10
CCOC(=O)NC(=O)/C(C#N)=N\Nc1cccc(Cl)c1	29
CCOc1cc(/C=N\O)cc(Cl)c1OCC	15
Cc1ccc(COC(=O)c2ccc3c(c2)C(=O)N(CCCN2CCOCC2)C3=O)cc1	-9
O=C(c1cc(=O)c2ccccc2o1)N1CCN(c2ccccc2F)CC1	23
O=C(CC12CC3CC(CC(C3)C1)C2)N/N=C/c1ccc([N+](=O)[O-])o1	10
Cc1cc(C)cc(C(=O)NN2CCN(C)CC2)c1	3
O=C1/C(=C/c2ccncc2)N=C2CCCCCN12	-2
Cc1ccc(C)c(NC(=S)NNC(=O)c2csc(C)c2)c1	2
Cc1ccc(-c2csc3ncn(Cc4ccc(C(=O)O)cc4)c(=O)c23)cc1C	-3
COc1ccc(C(=O)NCC(=O)NCC(=O)OCc2ccc(Br)cc2)cc1	-8
COCCn1c(C)cc(C(=O)COC(=O)c2cccc(O)c2)c1C	23

(next part)
Structure	Biofilm kill mix
Cc1cccc(-n2cc(C#N)c(=O)[nH]c2=O)n1	13
Cc1ccc(NC(=S)NNC(=O)c2nnn(-c3ccccc3)c2C)cc1	11
CCC(=O)c1ccc(OCc2ccccc2)c(OC)c1	14
Cc1cc(Nc2ccc(O)cc2)n2c(nc3ccccc32)c1C#N	14
O=C(CCC1CCCN(C(=O)c2ccoc2)C1)NCc1ccccc1F (configuration not stated)	9
Cn1c(SC2CCCCC2=O)nnc1-c1ccccc1F (configuration not stated)	7
COc1ccc(NC(=O)c2sc3nc(Cc4ccccc4)cc(C(F)(F)F)c3c2N)cc1OC	6
O=C(Nc1cccc(Cl)c1)N(Cc1nc2ccccc2c(=O)[nH]1)Cc1cccs1	9
Fc1ccc(-c2nnc(CSc3nnc4ccccn34)o2)cc1	0
CNC(=O)CSc1cn(CC(=O)N(C(C)C)C(C)C)c2ccccc12	-5
O=C(CCCSc1nc2ccccc2[nH]1)Nc1ccccc1	5
